nsP2pro primary: inhibitors of chikungunya virus nsP2 protease; Q8JUX6; FRET peptide cleavage, nsP2pro, fluorescence 1 h; Potency, µM (doses to about 24.9 µM), for the others: at the highest dose activity change, negative = inhibition, usual class: inhibitors; hit rate 1.1% among 31,000; active means well fitted inhibition curve with a large enough effect; inconclusive means small, poorly fitted or top-dose-only effect; inactive means no such curve, though single readings can be large or run the other way; further: nearly all actives have a fitted effect of over 60% in size; a reference inhibitor and vehicle were the controls
An asterisk follows results filed as active; ? = inconclusive; & = joins results of further samples; [ ] = remark or other dose. On the % scale 0 is the no-effect control and ±100 the full control effect; potency means the concentration at half of the fitted maximal effect. An excerpt; the hit share may differ from the screen's.

SMILES	nsP2pro primary
C[C@@H]1[C@H](C)CC[C@]2(C(=O)O[C@@H]3O[C@@H](CO[C@@H]4O[C@@H](CO)[C@@H](O[C@@H]5O[C@@H](C)[C@@H](O)[C@@H](O)[C@H]5O)[C@@H](O)[C@H]4O)[C@@H](O)[C@@H](O)[C@H]3O)CC[C@]3(C)C(=CC[C@H]4[C@@]5(C)C[C@@H](O)[C@@H](O)[C@](C)(CO)[C@@H]5CC[C@@]43C)[C@H]12	?
CC1CCN(c2cc(N3CCN(C)CC3)ccc2NC(=O)c2cc(C#N)c[nH]2)CC1	-4.8%
CCOC(=O)N1CCC(NCCNC(=O)c2ccccc2C)CC1	-11.3%
Cc1c(NC(=O)OC[C@@H]2COCCN2)cn2ncnc(Nc3ccc4c(cnn4Cc4cccc(F)c4)c3)c12	78.8%&62.4%[activator]
CC#CCn1c(N2CCC[C@@H](N)C2)nc2c1c(=O)n(Cc1nc(C)c3ccccc3n1)c(=O)n2C	?
CCN(CC)CCOC(=O)C1(c2ccccc2)CCCC1	11.5%
CCCCNC(=O)[C@@H]1Cc2ccccc2N1C(=O)[C@@H](N)CC	-7.8%
O=C(c1ccc(NS(=O)(=O)c2cccc3cccnc23)cc1)N1CCN(CC2CC2)CC1	-24.6%
Cc1ccc(N2CCN(CCC3NC(=O)c4ccccc43)CC2)cc1C (stereo not given)	-17.0%
CCC(CC)Nc1nc(C)c(-c2ccc(OC(F)(F)F)cc2OC)nc1OC	15.0%
NCc1ccc(Nc2ncc(F)c(Nc3ccccc3)n2)cc1	22.1%
CC(C)N(C[C@H]1O[C@@H](n2cnc3c(N)ncnc32)[C@H](O)[C@@H]1O)C1CC(CCc2nc3ccc(C(C)(C)C)cc3[nH]2)C1 (stereo not given in full)	174.7%&115.7%[activator]
COc1cc2c(Oc3ccc(NC(=O)C4(C(=O)Nc5ccc(F)cc5)CC4)cc3F)ccnc2cc1OCCCN1CCOCC1	189.9%[activator]
CCCNC(=O)C1CCC(Cn2c(=O)c3sccc3n(CC(=O)NCc3ccccc3)c2=O)CC1 (stereo not given)	-5.6%
c1ccc(CC2=NCCN2)cc1	7.5%
O=S(=O)(c1cccc2cnccc12)N1CCCNCC1	-0.8%&-6.6%
COc1cc(/C=C2\CCCN([C@@H](C)c3ccc(F)cc3)C2=O)ccc1-n1cnc(C)c1	222.7%[activator]
COCCN(C)Cc1ccc2nc3sc(C(=O)N(C)C4CCCCC4)cn3c2c1	1.2%
NC(=O)c1cccc(-c2cc(Nc3ccc(OC(F)(F)F)cc3)ncn2)c1	-1.5%&81.5%
CCOc1ccccc1C(N)=O	-1.7%
O=C(O)[C@H]1Cc2ccccc2CN1	-8.9%[2.68 µM]
Cc1cc(Nc2ncc(Cl)c(Nc3ccccc3S(=O)(=O)C(C)C)n2)c(OC(C)C)cc1C1CCNCC1	64.0%&129.1%[activator]
COc1ccc(CNC(=O)c2cc(-c3cncc(C)c3)ncc2-c2nccs2)nc1OC	-3.2%
CCN(Cc1cc(Nc2nc(C)cn3c(-c4cn[nH]c4)cnc23)sn1)C(C)(C)CO	396.6%[activator]
Cc1cc(OCc2nnc(SC3CCCC3)n2-c2cccnc2)ccc1-c1ccc(S(C)(=O)=O)cc1	-6.3%&-1.6%

Further structures follow.
SMILES	nsP2pro primary
Cn1c(=O)c2c(ncn2CC2OCCO2)n(C)c1=O	?
O=C(C1CCCCC1)N(CCN1CCN(c2ccccc2O)CC1)c1ccccn1	-13.0%
C1CCC(C(CC2CCCCN2)C2CCCCC2)CC1 (stereo not given)	13.6%&13.3%
NC(=O)c1ccccc1Nc1ccnc(Nc2cccc(O)c2)n1	51.0%[activator]
COc1ccc(C(=O)CC(=O)c2ccc(C(C)(C)C)cc2)cc1	-4.4%
Cn1c(=O)c2[nH]c(Br)nc2n(C)c1=O	0.9%
O=C(O)CNC(=O)c1ccccc1I	-4.3%
Cc1cc(NS(=O)(=O)c2ccc(N)cc2)nc(C)n1	9.1%
CCn1cc(-c2ccnc3[nH]c(-c4cccc(CN(C)C)c4)cc23)c(-c2ccc(NC(=O)N(C)C)cc2)n1	125.7%[activator][10 µM]
Cc1ccc(C2=NC3(CCN(C(=O)c4cnccn4)CC3)ON2)cc1	-6.8%
NC(=O)c1cccc2[nH]c(-c3ccc([C@@H]4CCCN4)cc3F)nc12	-8.3%&18.5%&7.4%&5.8%
COC(=O)C1=C(C)NC(C)=C(C(=O)OCCc2ccc(N3CCN(C(c4ccccc4)c4ccccc4)CC3)cc2)C1c1cccc([N+](=O)[O-])c1 (stereo not given)	1.2%
Nc1c(I)cc(I)c(C(=O)N(CCC(=O)O)c2ccccc2)c1I	-8.4%
CNC(=O)CN1CCC(Oc2cc3c(Nc4cccc(Cl)c4F)ncnc3cc2OC)CC1	7.5%
CN1CCN(CCOc2cc(OC3CCOCC3)c3c(Nc4c(Cl)ccc5c4OCO5)ncnc3c2)CC1	34.6%&51.8%[activator]
CCC1Nc2cc(Cl)c(S(N)(=O)=O)cc2S(=O)(=O)N1 (stereo not given)	-2.2%
CC(=O)c1ccc2c(c1)N(CCCN(C)C)c1ccccc1S2	-3.7%
O=C(Cc1ccc(-c2ccc(OCCN3CCOCC3)cc2)cn1)NCc1ccccc1	-1.1%&-7.8%
COc1ccc(CC2NCCc3c2[nH]c2ccc(C)cc32)cc1OC (stereo not given)	17.5%
COc1cc2ncnc(N3CCC(Oc4cnc5ccccc5n4)C3)c2cc1OC (stereo not given)	25.0%
CN(C)[C@@H](CCOc1cccc2ccccc12)c1ccccc1	22.3%&-11.6%
Cn1cc(-c2ccc3nnc(C(F)(F)c4ccc5ncccc5c4)n3n2)cn1	25.0%
CCCN1CCC[C@@H](c2cccc(S(C)(=O)=O)c2)C1	-14.2%
Cc1cc(OCCN2CCOCC2)nn1-c1ccc2ccccc2c1	-16.9%
CNC(=O)c1ccc2c(c1)CCO[C@H]2CCN1CCN(c2ccc(C(N)=O)cc2)CC1	-11.0%
CCn1c(C(=O)N(C2CC2)C2CC2)cc2c3c(ncn3C)c(Nc3cc(C)n(C)n3)nc21	1.2%
Cc1[nH]cnc1C1CCN(c2nc3cccc4c3n2CCC4=O)CC1	-3.1%
OC1CCC(Nc2ncc3nc(Nc4c(F)cc(F)cc4F)n([C@H]4CCOC4)c3n2)CC1 (stereo not given in full)	-11.9%
CN(C)CC(=O)N1CCC(c2ccc(NC(=O)c3ncc(C#N)[nH]3)c(C3=CCCCC3)c2)CC1	90.7%[activator]

Arranged by number of heavy atoms (low to high): part of the list above
SMILES	nsP2pro primary
Cn1c(=O)c2[nH]c(Br)nc2n(C)c1=O	0.9%
CCCN1CCC[C@@H](c2cccc(S(C)(=O)=O)c2)C1	-14.2%
CC(=O)c1ccc2c(c1)N(CCCN(C)C)c1ccccc1S2	-3.7%
NC(=O)c1cccc2[nH]c(-c3ccc([C@@H]4CCCN4)cc3F)nc12	-8.3%&18.5%&7.4%&5.8%
Cc1cc(OCCN2CCOCC2)nn1-c1ccc2ccccc2c1	-16.9%
COc1cc2ncnc(N3CCC(Oc4cnc5ccccc5n4)C3)c2cc1OC (stereo not given)	25.0%
CCn1c(C(=O)N(C2CC2)C2CC2)cc2c3c(ncn3C)c(Nc3cc(C)n(C)n3)nc21	1.2%

In a second layout: 5 of the compounds above
SMILES | nsP2pro primary
O=C(C1CCCCC1)N(CCN1CCN(c2ccccc2O)CC1)c1ccccn1 | -13.0%
O=C(Cc1ccc(-c2ccc(OCCN3CCOCC3)cc2)cn1)NCc1ccccc1 | -1.1%&-7.8%
NC(=O)c1cccc(-c2cc(Nc3ccc(OC(F)(F)F)cc3)ncn2)c1 | -1.5%&81.5%
NC(=O)c1cccc2[nH]c(-c3ccc([C@@H]4CCCN4)cc3F)nc12 | -8.3%&18.5%&7.4%&5.8%
Cc1ccc(N2CCN(CCC3NC(=O)c4ccccc43)CC2)cc1C (stereo not given) | -17.0%

Screening data deposited in PubChem by National Center for Advancing Translational Sciences (NCATS).
